Ab BasE inh: BasE siderophore enzyme inhibitors, primary screen, biochemical, Acinetobacter baumannii ATCC 17978, fluorescence polarization. 0.1% of 84,000 active. purified BasE, fluorescence polarization binding displacement. AID 485350, 2010. inhibition, % (concentration not given with the values);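 active = both replicates above 25% with normal brightness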;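 also: 0% = negative plate control signal and 100% = positive plate control signal; stock transfer was 100 nL into about 30 µL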
LANA-nucl inh: inhibitors of KSHV LANA-nucleosome binding, primary screen, biochemical, fluorescence polarization, FITC-LANA1-23, chicken nucleosomes; FITC-LANA1-23 / chicken nucleosome fluorescence polarization; active compounds read low; z-score (test concentration not listed); 0.3% of 51,000 active;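 active = both repeat wells score below -2 in polarization z-score versus plate sample wells, excluding overly bright wells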;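 also: 100 nL library stock added to about 30 µL; numbers are from one replicate; some results filed as inactive read as strong as hits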
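Assay system: FITC-LANA peptide and chicken nucleosomes; input: 240 nM purified chicken nucleosomes (480 nM peptide binding sites), final; also added: 50 nM FITC-LANA1-23 probe; medium: TEN-BT buffer, pH 7.5; doses: pin-transferred compound, 100 nL; times: 10–45 min, room temperature; technique: fluorescence polarization; replication: duplicates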
* = called active by the depositor; . = no result given; & = joins results of further samples. Not all compounds are listed. The share of hits here may be higher or lower than overall.

Structure | LANA-nucl inh | Ab BasE inh
c1ccc2c(NN=C3CCCCCC3)nncc2c1 | . | -1.1
Clc1ccc(-c2cnc3[n+](c2)[C@H](CBr)CS3)cc1 | 0.061 | .
CS(=O)(=O)Nc1ccc2c(c1)CCC2 | -0.33 | 3.1
Cc1nc2ccccc2c(=O)n1-c1cccc(NC(=O)C(C)C)c1 | -0.64 | -2.1
Cc1nn(-c2ccccc2)c(OC(=O)C(C)C)c1S(=O)(=O)c1ccccc1 | 2.9 | -0.1
COC(=O)CSc1nc2nc3c(cn2n1)C(=O)CC(c1ccco1)C3 (stereo not given) | -1.8 | 10
CCCCn1cnc2c1c(=O)n(Cc1nc3ccccc3s1)c(=O)n2CCC | . | -1.5
O=C(CN1CCN(c2ccccn2)CC1)N(Cc1ccccc1)Cc1ccccc1 | . | 1.9
N#Cc1ccccc1NC(=O)CC1Nc2ccccc2NC1=O (stereo not given) | -0.24 | 0.9
Cc1noc2[nH]cnc(=S)c12 | -0.73 | 14
O=C(NCCCn1ccnc1)c1ccc(Cl)cc1 | . | 1.3
COc1ccc(C)cc1NC(=O)c1ccccc1OC(F)F | . | 2.8
CCn1c(C(=O)O)c(CC(=O)Nc2ccccc2F)c2ccccc21 | . | 2.8
CCNc1nc(Cl)nc(N(C)C#N)n1 | -0.38 | -1.7
CCSc1nnc2c3ccccc3n(CC)c2n1 | -1.3 | -0.9
N#CC1COc2ccccc2O1 (stereo not given) | -1.3 | 3.4
N#Cc1ncc(C(F)(F)F)cc1SCc1ccc(Cl)cc1 | 0.77 | .
Cc1ccc(C(=O)C2=C(O)C(=O)N(CCc3ccccc3)C2c2ccncc2)o1 (stereo not given) | -1.9 | 0.8
OC1CCC(n2c(-c3ccccc3)nc(=S)c3c2CCCC3)CC1 (stereo not given) | . | 0.2
O=S(=O)(c1cc(Br)c(Br)s1)N1CCN(Cc2ccc3c(c2)OCO3)CC1 | 0.56 | 0.8
Nn1c(-c2ccncc2)nncc1=O | -0.52 | 0.7
CC(C)(C)c1ccc(C2CC(=O)C(C=NCCN3CCNCC3)=C(O)C2)cc1 (stereo not given) | 0.82 | -0.4
Cc1cc(C(=O)NCc2cccn2C)nn1C | . | 2.1
CCOC(=O)C1CCCCN1S(=O)(=O)c1ccc2ccccc2c1 (stereo not given) | . | 3.7
CC(C)=NOCC(=O)Nn1c(COc2c(C)cccc2C)nc2ccccc2c1=O | . | 4.7
CC(OC(=O)CCc1nc(=O)c2ccccc2n1C)C(N)=O (stereo not given) | . | -0.4
COc1ccc(CNC(=O)CN(C)c2ccccc2)cc1 | . | -1.9
c1ccc(-c2ccc(-c3csnn3)cc2)cc1 | -0.27 | .
Cc1ccc2c(c1)nnn2C1CCN(CC(=O)N2c3ccccc3CC2C)CC1 (stereo not given) | -0.89 | 0.5
C/C(=N\Nc1ccccc1Cl)C(c1ccccc1)N1CCOCC1 (stereo not given) | . | 1.8
CCn1cnc2c1c(=O)n(Cc1csc(-c3ccccc3)n1)c(=O)n2Cc1ccccc1 | . | -0.7
CCC(=O)N1c2ncnn2C(c2ccccc2OC)CC1c1ccccc1 (stereo not given) | 1.2 | 0.1
O=C(CSc1ccccn1)NCCOc1ccccc1 | 2.6 | -2.1
N#Cc1cnc(SCC(=O)Nc2ccccc2C(F)(F)F)nc1N | 1.5 | -7.3
c1csc(CN=C2SCCN2C2CCCCC2)c1 | . | 1.5
COC(=O)/C=c1\sc2n(c1=O)CCN=2 | . | 0.0
CSC1=NCCN1CC(=O)c1ccc(F)cc1 | . | -2.2
CC1CCCCN1Cc1c(O)ccc2c(=O)c(-c3ccccc3)coc12 (stereo not given) | -0.32 | 4.1
O=C(O)/C=C/CC(=O)O | . | 0.2
N#Cc1cccc(NC(=O)CSc2ncccn2)c1 | . | -0.6
COC(=O)c1ccc(Nc2cc(=O)[nH]c(=O)[nH]2)cc1 | -0.89 | 1.4
Cc1ccc(-n2c(Sc3cnccn3)nnc2-c2ccccc2)cc1C | . | -1.9
O=C1NNC(=S)C1C1CC1 (stereo not given) | . | -1.1
CCCN=c1ssc(=O)n1CCC | . | 3.6
CN(CC(=O)Nc1ccc(F)c(F)c1F)CN1C(=O)C2CC=CCC2C1=O (stereo not given) | . | 0.5
CSC(=CC(=O)c1ccco1)SC | 0.31 | 2.0
Cc1ncsc1CCOC(=O)c1ccc2c(c1)S(=O)(=O)c1ccccc1C2=O | . | -0.1
CN1CCN(Cc2nc(N)nc(Nc3ccccc3)n2)CC1 | 0.053 | -0.1
CCCCn1c(SCn2nnc3ccccc3c2=O)nc2cc(S(=O)(=O)N3CCCCC3)ccc21 | . | 0.0
CC(Sc1nc2cc(Cl)ccc2c(=O)n1Cc1ccco1)C(=O)Nc1ccc(Cl)cn1 (stereo not given) | . | -0.3
CCOC(=O)c1cccc(OCC(O)CNCC(c2ccc(OC)cc2)N2CCCC2)c1 (stereo not given) | . | -1.2
O=C(O)CNC(=O)c1ccc(Oc2ccccc2)cc1 | . | -0.8
NC(=S)COc1cc(Cl)cc(Cl)c1 | 0.36 | -3.3
COC(=O)c1cnc(NCc2cccnc2)c2ccccc12 | -0.078 | -5.2
O=C(CSc1nnc(SCC(=O)N2CCCC2)s1)N1CCCC1 | 2 | -2.4
O=C(Cc1coc2cc3c(cc12)CCC3)OC1CCCCC1=O (stereo not given) | . | -0.6
OC[C@H]1O[C@@H](O[C@@H]2[C@@H](CO)O[C@](O)(CO)[C@H]2O)[C@H](O)[C@@H](O)[C@H]1O | -0.18 | 0.1
CN(C)/C=C/C(=O)C(c1ccccc1)c1ccccc1 | . | 0.9
CCc1cc(C(=O)OC)c(NC(=O)CN2CC(C)CC(C)C2)s1 (stereo not given) | 0.87 | -2.3
CCOCN(C(=O)Cn1c(C(C)O)nc2ccccc21)c1c(C)cccc1CC (stereo not given) | -0.56 | 1.5

(more compounds)
Structure | LANA-nucl inh | Ab BasE inh
NC(=S)N1CCCCC1 | . | 2.8
CCCC(=O)Nc1cc(C)c(O)c(-c2nc3cc(Cl)ccc3o2)c1 | 0.47 | -1.0
CCn1c(SCCNS(=O)(=O)c2ccc(C)cc2)nnc1-c1ccc(Cl)cc1 | . | -3.3
NC12CC3CC(CC(C3)C1)C2 | -0.14&-0.044&0.83&0.41 | -3.1&-4.9&-2.6
Cc1ccc(CN2CCN(c3ncccn3)CC2)c(C)c1 | -0.69 | 1.1
Cc1ccc2nc(COC(=O)/C(C#N)=C/c3cc(C)n(CC(C)C)c3C)cc(=O)n2c1 | . | -1.8
Cc1noc(C)c1CSc1ncccc1C(=O)Nc1ccccc1C(=O)NC1CCCC1 | . | -6.8
CN1CCN(/N=C/c2nc(-c3ccc(Cl)cc3)n3ccccc23)CC1 | -0.14 | -4.5
O=C1CCC(c2ccccc2)N1C(=O)c1ccc(Cl)cc1 (stereo not given) | -0.84 | 0.4
CCOc1ccc(NC(=O)CN(C)C(=O)C2CCCC2)cc1OCC | . | 0.1
Cc1nc2ccccc2nc1OCC(=O)NCC(F)(F)F | . | -0.3
NC(=O)c1ccc(NC(=O)COC(=O)C2CC(=O)N(Cc3ccccc3)C2)cc1 (stereo not given) | . | 0.3
O=C(CSC1=Nc2ccccc2C2CC=NN12)NCc1ccco1 (stereo not given) | . | -2.0
ON=C1CCCCCCCCCCC1 | . | 0.9
CC(=O)NCCC(=O)Oc1c(C)ccc(C)c1C | . | -0.9
CCOC(=O)N1CCN(C(=S)Nc2ccc(C)c(C)c2)CC1 | . | -0.5
Cc1cc(COc2ccc(-c3ccccc3)cc2)no1 | . | 2.0
CCc1cc(C(=O)O)n(C)n1 | 2.6 | -1.4
Cc1c(C(=O)N(C)C2CCN(C)CC2)cnn1-c1ccc(F)cc1 | -0.081 | .
O=C(NC1CC1)c1ccc2cn[nH]c2c1 | 0.37 | -0.3
Cc1cccn2c(=O)c(C=Nc3ccc(Cl)cc3)c(NCCO)nc12 | . | 3.7
CC1(C)CC(=O)C(C=NCCN2CCN(C(=O)NC34CC5CC(CC(C5)C3)C4)CC2)=C(O)C1 | 0.085 | 2.4
NC(=O)CSc1nnc(-c2ccco2)n1Cc1ccco1 | 0.26 | 0.5
O=C(c1ccc(S(=O)(=O)N2CCOCC2)cc1)N1CCn2c1nc1ccccc12 | . | -1.3
c1ccc(N=c2oc3ccccc3cc2-c2nc3ccccc3[nH]2)cc1 | . | -0.3
CCNC(=O)c1snc(Nc2ncc(C)o2)c1N | 0.32 | 0.6
COc1cc(C)nc(OCCNS(=O)(=O)c2cc(C)ccc2C)n1 | . | 0.3
O=C(Nc1nccs1)C1CCN(S(=O)(=O)c2ccccc2)CC1 | -1 | -0.5
C[C@H](O)C(=O)Nc1c(I)c(C(=O)NC(CO)CO)c(I)c(C(=O)NC(CO)CO)c1I | 0.29 | -1.1
Cn1c(-c2ncc(C(F)(F)F)cc2Cl)n[nH]c1=S | . | 2.3

Brought forward from above: 5 entries; new compounds follow.
Structure | LANA-nucl inh | Ab BasE inh
CCNC(=O)c1snc(Nc2ncc(C)o2)c1N | 0.32 | 0.6
COc1cc(C)nc(OCCNS(=O)(=O)c2cc(C)ccc2C)n1 | . | 0.3
O=C(Nc1nccs1)C1CCN(S(=O)(=O)c2ccccc2)CC1 | -1 | -0.5
C[C@H](O)C(=O)Nc1c(I)c(C(=O)NC(CO)CO)c(I)c(C(=O)NC(CO)CO)c1I | 0.29 | -1.1
Cn1c(-c2ncc(C(F)(F)F)cc2Cl)n[nH]c1=S | . | 2.3
O=C(COC(=O)c1cc(-c2ccco2)nc2ccccc12)Nc1ccc(F)c(F)c1F | . | 0.1
CCN(CC(=O)Nc1ccc(OC)cc1)C1CCCCC1 | . | 1.1
COc1ccc(CNC(=O)C(C)Nc2cc(OC)c(Cl)cc2OC)cc1 (stereo not given) | . | 1.3
COc1ccccc1C1CCN(C(=O)C2CCCCC2)CC1 | . | -1.8
COCC(C)NC(=O)c1ccc2c(c1)OCO2 (stereo not given) | -0.96 | 1.5
O=C(NCc1ccccc1)c1cnc(N2CCOCC2)nc1 | 0.063 | 0.1
N=C(N)SCCN1C(=O)c2ccccc2C1=O | . | 0.7
Cc1nn(C(=O)c2cccnc2)c(-c2ccccc2)c1Sc1ccccc1 | . | 0.1
Clc1ccc(CNc2ccc(N3CCOCC3)cc2)cc1Cl | 1.2 | -0.5
O=C(CSc1nnc(Cc2ccccc2)n1Cc1ccco1)NC1CCCC1 | -0.05 | 1.4
COC(=O)c1sccc1-c1ccc(/C=N/OC(=O)c2cccs2)o1 | -0.1 | -0.1
O=C(Nc1ccccc1)N(CCc1ccncc1)C1CCCCC1 | -0.84 | 2.9
Cc1nn(-c2ccccc2)c2sc(C(=O)Nc3cccnc3)cc12 | . | 12
O=C1Nc2ccccc2C12Nc1ccccc1CO2 (stereo not given) | 0.25 | -0.3
O=C(C1CC1)N1CCC(C(O)(c2ccccc2)c2ccccc2)CC1 | . | 0.3
c1ccc(-c2cnc(CSc3ncn[nH]3)o2)cc1 | . | 1.3
O=C(COc1ccc(S(=O)(=O)NC2CCCC2)cc1)N1CCCCC1 | 1.1 | -2.1
O=C(OCc1ccc(Cl)c(Cl)c1)c1ccccn1 | -1.3 | -2.6
COc1ccc(N(CC(=O)N2CCN(c3ccc(Cl)cc3)CC2)S(=O)(=O)c2c(C)noc2C)cc1 | 0.9 | 1.8
CCCCCNc1nc2ccccc2nc1NS(=O)(=O)c1cccs1 | -0.32 | 0.6
CCSc1nnc(CSc2nc(C)cc(C)n2)n1-c1ccccc1 | -0.31 | 0.9
CC(Oc1ccc(F)cc1)c1nnc(SCC(N)=O)n1C (stereo not given) | 0.69 | 1.8
CC(C)Cn1c(SCC(=O)N2CCc3ccccc32)nc2ccccc2c1=O | . | 2.0
NCCSCc1ccccc1 | . | -0.6
CC/C(C)=N/NC(=O)c1cccc(S(=O)(=O)N(CC)CC)c1 | . | 0.2
Cc1cc(C)c(OC(=O)/C=C/c2cccs2)c(C)c1 | . | 2.3
O=P(c1ccccc1)(c1ccccc1)C1CCCO1 (stereo not given) | 0.21 | 4.2
O=C(NC1CC1)C1CCN(C(=O)c2cnn(-c3ccccc3)c2-n2cccc2)CC1 | -2.1 | 0.7
CC(C)NC(=S)NC(=O)c1ccco1 | . | -1.9
O=C(NC1CCCCC1)/C(=N\O)c1ccccn1 | -1.2 | 1.5
Cc1cc2nc3n(c2cc1C)CCCN3 | 0.17 | -7.5
Cc1nnsc1C(=O)NNc1ccc(C(C)C)cc1 | -1.1 | -1.5
CCn1c(N2CCN(C(=O)Nc3ccc(Cl)c(C(F)(F)F)c3)CC2)nc2ccccc21 | -1.4 | 0.4
Cc1oc2ccc(O)c(CN3CCN(C)CC3)c2c1C(=O)OCC(C)C | 0.29 | 0.5
COc1cc(OC)cc(C(=O)NC(C(=O)N2CCC2)C(C)C)c1 (stereo not given) | . | 1.5
CCOC(=O)c1c(Nc2ccc(C)cc2)n[nH]c1N | 1.5 | -3.1
NC(=O)c1ccc(NC(=O)CN2CC(=O)Nc3ccccc32)cc1 | . | -1.4
CCCNC(=O)NCc1cc(C)n(-c2ccc(Cl)cc2)c1C | . | -1.2
CCc1ccc(CN(C)C(C)C(=O)Nc2ccc(NC(C)=O)cc2)cc1 (stereo not given) | . | -1.8
O=C(/C=C/c1c(Cl)nc2sccn12)OCc1ccco1 | . | 4.4

High-throughput results: PubChem BioAssay, ICCB-Longwood Screening Facility, Harvard Medical School
